Vif A3G: HIV-1 Vif–A3G interaction blockers – biochemical, TR-FRET, GST-Vif 1-94, biotin-A3G peptide, dose response retest, primary screen (AID 1117319); 0.57% of 260,000 active; one-dose inhibition, %; IC50 in µM for titrated hits; TR-FRET GST-Vif / biotin-A3G peptide binding; higher % means a stronger effect; test concentration not given here; strong numbers were not always called active;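 active = above the screen mean plus three standard deviations and confirmed in dose response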;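 also: Vif residues 1-94 fused to GST binding biotinylated APOBEC3G peptide 110-148; 0% = full assay without inhibitor and 100% = GST in place of GST-Vif; retest series ran down from 100 µM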
FGF22 binding: binders of recombinant human FGF22 by thermal shift; 1.5% of 340,000 active; calls only at 9.99 µM; SYPRO orange fluorescence; percent of sucrose octasulfate shift, DMSO zero;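 active = melting point raised past a set limit in the mean and every replicate; three in four hits are not shown here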
Target sequence (Q9HCT0 whole entry, looked up): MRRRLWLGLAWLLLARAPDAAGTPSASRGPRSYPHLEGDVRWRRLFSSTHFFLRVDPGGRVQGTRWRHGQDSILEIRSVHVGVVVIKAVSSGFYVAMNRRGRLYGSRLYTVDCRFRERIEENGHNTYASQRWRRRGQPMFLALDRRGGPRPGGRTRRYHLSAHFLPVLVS
HNF4A DNA FP: change in binding of human HNF4 alpha to DNA; P41235; HNF4a-FITC DNA binding, fluorescence polarization, 1 h; activity change, % at 10 µM; 0.3% of 360,000 active; AID 1224865; in the data active = activity change above about 30%, passing the limit was not always enough;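 also: controls were the assay level and a saturating level of protein; the project sought stronger binding though the title names inhibitors; some compounds called inactive have numbers as strong as hits; positive values seem to mean higher polarization but the record does not say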
Target sequence (P41235 whole entry, looked up): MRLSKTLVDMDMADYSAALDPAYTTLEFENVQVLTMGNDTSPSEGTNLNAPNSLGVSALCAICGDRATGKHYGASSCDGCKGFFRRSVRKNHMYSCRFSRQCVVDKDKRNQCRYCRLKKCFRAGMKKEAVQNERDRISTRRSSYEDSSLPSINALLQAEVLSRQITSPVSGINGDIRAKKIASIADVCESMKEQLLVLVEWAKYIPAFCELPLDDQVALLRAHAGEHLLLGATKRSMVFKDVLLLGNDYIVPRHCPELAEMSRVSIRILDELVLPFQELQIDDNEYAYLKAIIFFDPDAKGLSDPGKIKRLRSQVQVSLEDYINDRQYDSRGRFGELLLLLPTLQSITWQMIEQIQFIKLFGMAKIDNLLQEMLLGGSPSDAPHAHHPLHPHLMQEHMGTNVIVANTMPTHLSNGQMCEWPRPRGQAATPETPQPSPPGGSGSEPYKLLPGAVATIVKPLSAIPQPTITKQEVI
rRNA inh HTS: inhibitors of bacterial rRNA selective over humanized ribosomes; E. coli WT GFP vs humanized-ribosome RFP mutants, fluorescence, 24 h; stronger effect = lower value; DMSO median 0, no signal -100; GFP signal change (wild-type ribosome), % (concentration not given with the values); 1.6% of 350,000 active; AID 720706;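 active = significant combined selectivity score with lowered wild-type GFP, culture density cut under 30%, mutant RFP and density less affected; inactive = any of these conditions unmet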; also: one replicate is shown; some compounds called inactive have numbers as strong as hits
E coli growth: E. coli growth inhibition; Escherichia coli growth, OD600, 23 h; stronger effect = lower value; OD600 absorbance (concentration not given with the values); 0.21% of 330,000 active;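 active = OD600 absorbance below the run mean of sample wells minus 3.6 SD, in any replicate, cut at about 0.56 in these data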;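 also: stock transfer was 300 nL into about 60 µL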
ALR H2O2 inh: inhibitors of human sulfhydryl oxidase ALR; purified ALR, DTT oxidation, H2O2 HRP-luminol luminescence; 3.8% of 290,000 active; inhibition, % (concentration not given with the values);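 active = mean and each replicate at 75% or more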;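 also: stock transfer was 7.5 nL into about 7.5 µL; 0% = neutral wells and 100% = wells with inactivated enzyme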
Target sequence (P55789 whole entry, looked up): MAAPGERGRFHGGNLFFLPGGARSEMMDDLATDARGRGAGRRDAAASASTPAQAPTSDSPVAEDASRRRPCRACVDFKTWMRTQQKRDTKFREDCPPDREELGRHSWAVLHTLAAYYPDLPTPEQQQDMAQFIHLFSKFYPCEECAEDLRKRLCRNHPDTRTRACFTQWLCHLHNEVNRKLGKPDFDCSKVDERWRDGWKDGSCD
MLL AF4-AF9 inh: inhibitors of human MLL-AF4/AF9 interaction; P42568; AlphaScreen, biotin-AF4 peptide binding to FLAG-AF9; inhibition, % at 10 µM; 0.47% of 350,000 active;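 active = every replicate reaching a set inhibition limit, whatever the replicate mean, cut at about 25% in these data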;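 also: 0% = plate neutral control median and 100% = total signal loss; the record names both 10 and 1 µM as test concentration; the first replicate is given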
rRNA inh HTS OD600: also measured in rRNA inh HTS; calls as there; OD600 change, %; measured here: OD600 growth;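 optical density of the mix in the first replicate; 0 = DMSO median and -100 = no signal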
rRNA inh HTS RFP: second read-out of rRNA inh HTS, no call of its own (marks repeat the call); RFP signal change, %; measured here: RFP humanized mutant strains;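 first replicate; 0 = DMSO median and -100 = no signal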
* = called active by the depositor; i = inactive; · = no result given; & = joins results of further samples. A portion of the library; rates above refer to the full screens.

cpd	smiles	FGF22 binding	rRNA inh HTS	HNF4A DNA FP	rRNA inh HTS OD600	ALR H2O2 inh	E coli growth	MLL AF4-AF9 inh	Vif A3G	rRNA inh HTS RFP
1	O=C(C[C@H]1CC[C@H](NC(=O)NC2CCCCC2)[C@H](CO)O1)NCc1ccc(F)cc1	i	3	·	8	·	·	-1.5	·	2.4
2	O=C(NCc1ccccn1)C1CCN(S(=O)(=O)c2ccccc2)CC1	·	·	0.0	·	-5	0.64	·	0%	·
3	COC(=O)C[C@H]1C[C@@H]2c3cc(NC(=O)C4CCOCC4)ccc3O[C@@H]2[C@@H](CO)O1	i	4	·	12	·	·	-0.5	·	-0.8
4	O=C(C[C@@H]1CC[C@@H](NS(=O)(=O)c2ccc(F)cc2)[C@H](CO)O1)N1CCN(c2ccccc2)CC1	i	0	·	-1	·	·	0.7	·	0.3
5	Cc1noc(C)c1NC(=O)Nc1cccc2c1O[C@H](CN(C)Cc1ccc(-c3ccccc3)cc1)[C@@H](C)CN([C@H](C)CO)C2=O	i	-7	·	-8	·	·	2.9	·	3.4
6	CCc1ccc(N(CC(=O)NCc2ccc3c(c2)OCO3)C(=O)c2csnn2)cc1	i	5	3.6	6	-5	0.7	-2.4	·	0.4
7	O=C(C1CC2CCC1C2)N1CCN(Cc2ccc3c(c2)OCO3)CC1 (configuration not stated)	·	·	·	·	-7	0.69	·	29%	·
8	CC(=O)Nc1ccc(NC(=O)C2CC(=O)N(c3ccccc3Cl)C2)cc1 (configuration not stated)	i	1	-2.0	6	-1	0.7	-1.8	2%	-1.9
9	CO[C@H]1CN(C)C(=O)c2ccc(NC(C)=O)cc2OC[C@@H](C)N(Cc2nccs2)C[C@@H]1C	i	-3	·	0	·	·	-0.2	·	-2.8
10	C[C@@H]1CN([C@H](C)CO)C(=O)c2cccc(NS(=O)(=O)c3cn(C)cn3)c2O[C@@H]1CN(C)C(=O)Nc1ccccc1	i	3	·	9	·	·	-0.7	·	-2.1

Among those listed so far, these have fluorine:
cpd	smiles	FGF22 binding	rRNA inh HTS	HNF4A DNA FP	rRNA inh HTS OD600	ALR H2O2 inh	E coli growth	MLL AF4-AF9 inh	Vif A3G	rRNA inh HTS RFP
1	O=C(C[C@H]1CC[C@H](NC(=O)NC2CCCCC2)[C@H](CO)O1)NCc1ccc(F)cc1	i	3	·	8	·	·	-1.5	·	2.4
4	O=C(C[C@@H]1CC[C@@H](NS(=O)(=O)c2ccc(F)cc2)[C@H](CO)O1)N1CCN(c2ccccc2)CC1	i	0	·	-1	·	·	0.7	·	0.3

More structures follow.
cpd	smiles	FGF22 binding	rRNA inh HTS	HNF4A DNA FP	rRNA inh HTS OD600	ALR H2O2 inh	E coli growth	MLL AF4-AF9 inh	Vif A3G	rRNA inh HTS RFP
11	c1ccc2c(c1)oc1c(NCCCn3ccnc3)ncnc12	·	·	-2.0	·	8	0.69	·	6%	·
12	C[C@H](CO)N1C[C@H](C)[C@H](CN(C)C(=O)NC2CCCCC2)Oc2ccc(NS(=O)(=O)c3ccc(Cl)cc3)cc2CC1=O	i	-3	·	-5	·	·	-1.1	·	0.6
13	COc1cc(C(c2sc3nc(C)nn3c2O)N2CC(C)CC(C)C2)cc(OC)c1OC (configuration not stated)	i	-1	4.1	-4	0	0.72	-2.2	3%	-0.3
14	C=CCN(C(=O)CSc1nc2[nH]ncc2c(=O)n1-c1ccccc1OC)c1ccccc1	·	·	4.9	·	·	0.66	·	-4%	·
15	O=Nc1c2cc3ccccc3[nH]c-2c2ccccc12	i	10	0.6	-25	·	0.72	2.0	4%	1.4
16	COc1ccc(/C=N/NC(=O)c2sccc2OCc2ccc(F)cc2)cc1OC	·	·	1.1	·	-10	·	·	2%	·
17	CC(CN1CCN(Cc2ccccc2)CC1)c1ccccc1 (configuration not stated)	i	0	0.2	-7	-23	0.67	3.9	·	1.1
18	C=CCNc1nc(Nc2ccc([N+](=O)[O-])cc2)nc(N2CCCC2)n1	·	·	-5.2	·	2	0.72	·	4%	·
19	Cc1cnc([N+](=O)[O-])n1CCOC(=O)NC(=O)c1ccc(F)cc1	i	4	-6.0	9	-7	0.7	-1.1	13%	-1.3
20	COC(=O)c1sc(NC(=O)C(C)c2ccccc2)nc1C (configuration not stated)	·	·	-0.4	·	-3	0.69	·	-9%	·

cpd	smiles	FGF22 binding	rRNA inh HTS	HNF4A DNA FP	rRNA inh HTS OD600	ALR H2O2 inh	E coli growth	MLL AF4-AF9 inh	Vif A3G	rRNA inh HTS RFP
21	CN1CCC(OC(=O)c2ccc(Cl)cc2Cl)CC1	i	·	2.7	·	3	0.67	-1.8	·	·
22	COc1ccc(/C=C/C(=O)NC(=S)N2CCOCC2)cc1	i	0	-1.4	0	0	·	-4.7	·	3.5
23	COc1ccccc1NC(=S)NCCN1CCOCC1	i	-5	0.5	0	-17	0.69	-2.3	24%	-4.2
24	N#C[C@H]1[C@H](c2ccccc2-c2ccc(F)cc2)[C@H](CO)N1C(=O)NC1CCCCC1	i	-3	·	-58	·	·	7.1	·	16
25	CCNC(=O)c1cc2c(c(-c3cccc(-c4ccncc4)c3)n1)[C@H](CCO)N(S(=O)(=O)CC)C2	i	-3	·	-5	·	·	1.6	·	-2.1
26	C[C@H]1CN([C@@H](C)CO)C(=O)c2cc(NS(=O)(=O)c3ccc(F)cc3)ccc2O[C@H]1CN(C)Cc1ccc2c(c1)OCO2	i	2	·	-7	·	·	3.0	·	3.4
27	CCCC(=O)N(CCN1CCOCC1)c1nc2c(C)cccc2s1	·	·	1.6	·	-19	0.63	·	·	·
28	CN(C)CCNC(=O)c1nn(C)c2c1CCc1ccccc1-2	i	2	-0.1	8	-9	0.67	-0.8	-6%	0.3
29	O=C(CSc1nnnn1C1CCCCC1)NCc1ccc2c(c1)OCO2	i	-3	-1.2	-4	-4	0.64	-8.8	8%	-0.1
30	CCNC(=O)c1cc(Br)ccc1Cl	·	·	5.1	·	-6	0.66	·	3%	·

cpd	smiles	FGF22 binding	rRNA inh HTS	HNF4A DNA FP	rRNA inh HTS OD600	ALR H2O2 inh	E coli growth	MLL AF4-AF9 inh	Vif A3G	rRNA inh HTS RFP
31	CCCn1cc(CN2CCc3ccc(NC(=O)C4CCCO4)cc3C2)c(C)n1 (configuration not stated)	i	6	-8.0	8	-1	0.71	-1.0	·	-1.3
32	COc1ccc(/C=C/C(=O)Nc2cccc(S(=O)(=O)N3CCCC3)c2)cc1OC	i	-17	4.9	-6	-4	0.68	4.4	·	1.9
33	Cc1cc(C)cc(-n2c3nc4ccccc4nc3c3c(=O)n(Cc4ccco4)cnc32)c1	·	·	-8.3	·	9	0.71	·	27%&29%	·
34	CCc1nnc(NC(=O)c2ccc3c(=O)n4c(nc3c2)CCCCC4)s1	i	4	0.2	8	-30	0.68	-4.6	-15%	-9.9
35	Cc1ccc(S(=O)(=O)N(C)C[C@@H]2Oc3ccc(NC(=O)Nc4ccccc4)cc3CC(=O)N([C@@H](C)CO)C[C@@H]2C)cc1	i	-1	·	-5	·	·	4.8	·	4.4
36	O=c1[nH]nc(N=Nc2c(O)[nH]c3ccc(F)cc23)c(=O)[nH]1	i	3	-4.7	4	·	0.69	-10	·	-6.8
37	COc1ccc(C(=O)N/C(=C/c2ccco2)C(=O)NCc2ccco2)cc1	i	2	1.9	4	5	0.65	-0.3	-7%	-1.2
38	Cc1ccc(S(=O)(=O)N(C)C[C@@H]2Oc3ccc(NC(=O)Cc4cn(C)c5ccccc45)cc3C(=O)N([C@H](C)CO)C[C@H]2C)cc1	i	-2	·	1	·	·	3.3	·	-1.5
39	CN(Cc1ccccc1)S(=O)(=O)c1ccc(C(=O)Nc2nnc(C3CC3)o2)cc1	·	·	0.7	·	-3	0.69	·	6%	·
40	Cc1ccc(C(=O)Nc2ccccc2C(=O)N2CCCC(C)C2)cc1 (configuration not stated)	i	-7	-4.4	-6	-2	0.68	-0.6	·	-1.4

cpd	smiles	FGF22 binding	rRNA inh HTS	HNF4A DNA FP	rRNA inh HTS OD600	ALR H2O2 inh	E coli growth	MLL AF4-AF9 inh	Vif A3G	rRNA inh HTS RFP
41	O=C(C1CCC(=O)N(C2CCCC2)C1)N1CCN(c2ccc(Cl)cc2)CC1 (configuration not stated)	i	-1	-4.3	-3	29	0.71	-2.0	·	-0.5
42	CCCCN1C(=O)C(=O)N(c2ccccc2)C1=S	i	-18	-4.5	-23	-8	0.66	-1.9	-8%	3.1
43	N/C(=N\OC(=O)CCCOc1ccccc1)c1ccncc1	i	1	-3.5	-9	·	0.64	1.9	-10%	-0.9
44	CCOc1ccc(NC(=O)CSc2nnc(CCNC(=O)c3ccc(OC)cc3)n2CC)cc1	·	·	0.5	·	-2	0.64	·	1%	·
45	Cc1ccccc1OCC(=O)Nc1ccc2c(c1)OCO2	i	4	-1.0	1	10	0.61	4.4	1%	-5.2
46	COc1ccc(N(CC(=O)NCCC2=CCCCC2)S(=O)(=O)c2ccccc2)c(OC)c1	i	10	0.1	5	-32	0.67	-2.1	-10%	3.8
47	O=C(C[C@@H]1C[C@@H]2c3cc(NC(=O)c4cccnc4)ccc3O[C@@H]2[C@@H](CO)O1)NCCc1ccccc1	i	-2	·	0	·	·	-2.6	·	0.1
48	CCn1ncc(C(=O)Nc2cc(C)on2)c1C	·	·	-1.9	·	-10	0.7	·	-5%	·
49	O=C(Nc1ccc(F)cc1)c1cc(S(=O)(=O)N2CCOCC2)cs1	i	0	1.3	1	2	0.67	-0.8	·	-0.1
50	CCn1c(=O)n(Cc2ccco2)c(=N)c2c3c(sc21)COC(C)(C)C3	·	·	2.0	·	-1	0.67	·	0%	·

cpd	smiles	FGF22 binding	rRNA inh HTS	HNF4A DNA FP	rRNA inh HTS OD600	ALR H2O2 inh	E coli growth	MLL AF4-AF9 inh	Vif A3G	rRNA inh HTS RFP
51	Cc1ccc(Cc2c(-c3ccc(F)cc3)nc3cc(C)ccn23)cc1	i	0	0.4	-57	·	·	2.7	3%	38
52	NC(=O)C1CCN(S(=O)(=O)c2ccc3c(c2)OCCO3)CC1	i	14	2.4	2	-12	0.67	14	26%	2.7
53	COc1ccc(S(=O)(=O)Nc2cccc3c2O[C@@H](CN(C)C(=O)Nc2c(C)noc2C)[C@H](C)CN([C@H](C)CO)C3=O)cc1	i	1	·	6	·	·	0.9	·	1.1
54	Cc1ccc(S(=O)(=O)N2CCOC2C(Cl)(Cl)Cl)cc1 (configuration not stated)	i	-13	1.4	-11	-4	0.72	-36	19%	-3.2
55	Cc1c(Br)c([N+](=O)[O-])nn1CC(=O)Nc1ccc(C(N)=O)cc1	i	9	2.4	14	-6	0.68	-2.6	18%	-8.7
56	CC(C)CN(C(=O)Cn1ccccc1=O)C1CCS(=O)(=O)C1 (configuration not stated)	i	17	1.9	11	-8	0.69	1.2	1%	1.0
57	CN(Cc1cccc2ncccc12)C(=O)CC1C(=O)NCCN1Cc1ccc(F)cc1 (configuration not stated)	i	13	1.6	4	-18	0.66	-0.1	3%	0.6
58	CNC[C@H]1Oc2cc(C#CC3CCCCC3)ccc2S(=O)(=O)N([C@H](C)CO)C[C@@H]1C	i	4	·	-6	·	·	5.7	·	5.4
59	CCOc1ccc(N(C)c2ccc(/C=C3/SC(=S)NC3=O)cc2)cc1	i	10	108	22	-2	·	7.1	·	25
60	CCOC(=O)c1ccc(-n2c(N)c(C(=O)NCc3ccco3)sc2=S)cc1	i	-26*	1.8	-20*	-1	0.7	24	7%	0.3*
61	CN1CCN(S(=O)(=O)c2ccc(Oc3ccc(Br)cc3F)nc2)CC1	i	-5	0.0	-12	1	0.62	-5.9	-1%	1.3

High-throughput results deposited in PubChem BioAssay by several laboratories.
